SNCA viab count – GF-AFC viability counterscreen for inhibitors of alpha-synuclein gene (SNCA) expression. HEK-293-SNCA-luc viability, GF-AFC fluorescence, 24 h. Potency, µM (series often up to 57.1 µM), without a hit: at the top dose activity change, negative = cytotoxicity, actives largely listed as cytotoxic. 150,000 tested, 0.12% active;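 further: 0% = DMSO-treated cells and -100% = medium-only wells without cells; nearly all actives have a fitted effect of over 30% in size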
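HEK-293-SNCA-luc cells (1500/well) plated 24 h, then exposed 24 h to a dilution series; GF-AFC added 30 min at 37C, fluorescence 405/540 nm; normalised to medium-only and DMSO wells, Hill fit.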
SNCA expr inhib – Primary qHTS assay for inhibitors of alpha-synuclein gene (SNCA) expression; Potency, µM (doses to about 57.2 µM), without a hit: at the highest dose activity change, negative = inhibition, hits mostly inhibitors; 140,000 tested, 0.17% active; HEK-293 SNCA-luciferase knock-in, luminescence, 24 h; AID 1671194, 2021;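 further: plate controls were DMSO cells for no effect and cell-free wells for full effect; nearly all actives have a fitted effect of over 45% in size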
Luciferase inh – Firefly luciferase inhibition profiling of diverse chemical library using quantitative high-throughput screening. Luciferin 4-monooxygenase (Photinus pyralis), P08659. purified P. pyralis luciferase, luminescence, biochemical. Potency, µM (top dose mostly 115 µM), inactives show at the top dose activity change, negative = inhibition, most hits filed as inhibitors. 76,000 tested, 2.5% active; further: nearly all actives have a fitted effect of over 65% in size
Target sequence (P08659 whole entry, looked up): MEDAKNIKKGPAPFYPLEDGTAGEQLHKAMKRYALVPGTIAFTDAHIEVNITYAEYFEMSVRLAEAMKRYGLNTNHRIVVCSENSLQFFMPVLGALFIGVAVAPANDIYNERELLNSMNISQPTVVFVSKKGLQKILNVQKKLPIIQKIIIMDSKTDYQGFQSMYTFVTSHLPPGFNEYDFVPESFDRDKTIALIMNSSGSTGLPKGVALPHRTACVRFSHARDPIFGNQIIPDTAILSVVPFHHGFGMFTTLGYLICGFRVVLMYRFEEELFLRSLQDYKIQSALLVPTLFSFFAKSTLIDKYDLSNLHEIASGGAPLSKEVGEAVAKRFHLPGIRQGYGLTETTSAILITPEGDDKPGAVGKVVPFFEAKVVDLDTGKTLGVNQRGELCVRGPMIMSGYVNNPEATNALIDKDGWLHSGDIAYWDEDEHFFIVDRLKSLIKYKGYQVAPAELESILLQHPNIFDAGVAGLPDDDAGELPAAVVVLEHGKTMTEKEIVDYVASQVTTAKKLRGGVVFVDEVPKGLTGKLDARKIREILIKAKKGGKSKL
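Purified P. pyralis luciferase (10nM final) in 50mM Tris acetate pH 7.5, 10mM Mg acetate, 0.01% Tween-20, 0.05% BSA with 10uM D-luciferin and 10uM ATP. Compounds titrated qHTS. Luminescence imaged on CCD.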
3T3 cytotox – Cytotoxic Profiling in NIH 3T3 Cell Line of Diverse Libraries Using Quantitative High-Throughput Screening; Potency, µM (highest dose often 96.7 µM), without a hit: at the top dose activity change, negative = cytotoxicity, usual class: inhibitors; NIH 3T3 viability, CellTiter-Glo ATP luminescence, 48-72 h; 94,000 tested, 4.3% active; AID 1345082, 2018; further: nearly all actives have a fitted effect of over 55% in size
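Cells were seeded at 400 per well, treated with pin-transferred compound, and kept 48 or 72 hr at 37 °C before CellTiter-Glo addition and luminescence imaging of cellular ATP.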
HEK293 tox – Cytotoxic Profiling in HEK 293 Cell Line of Diverse Libraries Using Quantitative High-Throughput Screening; AID 1345083, 2018; HEK 293 viability, ATP luminescence (CellTiter-Glo), 48-72 h; 94,000 tested, 6.6% active; Potency, µM (series often up to 115 µM), without a hit: at the highest dose activity change, negative = cytotoxicity, most hits filed as inhibitors; further: nearly all actives have a fitted effect of over 60% in size
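250 HEK 293 cells/well; compound by pintool; incubated 48 or 72 hr at 37 degree Celsius; CellTiter-Glo added, 10 min RT, luminescence imaged.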
* marks the source's active call; other numbers are inactive results; i = inactive; ? = inconclusive; / = not tested or not shown; & = joins results of further samples; [ ] = another dose, or the depositor's remark. The call rests on the fitted dose curve; in most records, active means well fitted curve in the direction sought with a large enough effect; inconclusive means small, poorly fitted or top-dose-only effect, or another doubt; inactive means no such curve, though single readings can be large; an effect the other way counts as inactive or inconclusive. Unless noted, on the % scale 0 is the no-effect control and ±100 the full control effect; potency means the concentration at half of the fitted maximal effect. These rows are one share of the data. The share of hits here may be higher or lower than overall.

| item | Structure | SNCA expr inhib | Luciferase inh | 3T3 cytotox |
| --- | --- | --- | --- | --- |
| 1 | C=CCC(=O)N(CC1CCN(CCc2ccccc2C)CC1)C1CCCC1 | -14.9% | 0.0% | ? |
| 2 | CSc1ccc(-c2nc(CN(C)Cc3cc(C)no3)c(C)o2)cc1 | 11.3% | 11.6% | ? |
| 3 | CC(C)(Oc1nn(CC2CCOCC2)c2ccccc12)C(=O)NCc1ccccc1 | -14.9%[87.6 µM] | -2.4%[172 µM] | ? |
| 4 | Cc1nonc1CC(=O)N1CCCC(c2nnc(Cn3cccn3)n2C)C1 (stereo not given) | 3.1% | -9.0% | -1.6% |
| 5 | CCc1nc2nccc(-c3ccco3)n2n1 | 5.4% | 1.5% | i |
| 6 | COCCn1c(C)cnc1CC1CCCN(S(=O)(=O)c2cccc(OC)c2)C1 (stereo not given) | 8.8% | / | -29.4% |
| 7 | CN(CCCN1c2ccccc2CCc2ccccc21)C(=O)[C@H]1CCC[C@@H](O)C1 | 6.0% | 9.7% | ? |
| 8 | CC1(C)Oc2ncnc(N)c2N=C1c1ccc(C23CCC(CC(=O)O)(CC2)CC3)cc1 | / | / | / |
| 9 | O=C(CCC1CCN(C(=O)c2ccccc2)CC1)Nc1ccccc1F | 14.9% | 0.0% | -36.2% |
| 10 | CC(c1n[nH]c(=O)n1CCC(=O)O)n1cccn1 (stereo not given) | 5.8% | 1.5% | i |
| 11 | COc1cccn(CC(=O)N(C)Cc2csc(C(C)C)n2)c1=O | -3.5% | -8.7% | -11.6% |
| 12 | Cc1ccc(C(=O)N2CCC(CCC(=O)N(C)CCc3c(C)nn(C)c3C)CC2)cc1 | 116.9%[activator] | ? | ? |
| 13 | Cc1nccn1Cc1nnc(C2CCCN(CC3CCC3)C2)n1C (stereo not given) | -6.4% | -3.0% | i |
| 14 | O=C(c1cnn2ccccc12)N1CCCC(c2nccn2Cc2ccncc2)C1 (stereo not given) | 33.6%[activator] | -0.9% | -7.3% |
| 15 | CNc1nc(C(=O)N2CCC3(CC2)c2nc[nH]c2CCN3C)cs1 | 2.3% | -6.3% | -2.2% |

| item | HEK293 tox | SNCA viab count |
| --- | --- | --- |
| 1 | ? | -3.8% |
| 2 | ? | -6.7% |
| 3 | ? | -13.4%[87.6 µM] |
| 4 | 0.6% | -11.5% |
| 5 | 15.9% | 5.6% |
| 6 | ? | 5.7% |
| 7 | 35.5µM* | -9.3% |
| 8 | / | -10.5% |
| 9 | ? | 7.0% |
| 10 | i | -29.4% |
| 11 | -4.9% | 5.8% |
| 12 | -13.4% | 4.1% |
| 13 | i | 6.8% |
| 14 | -14.2% | -6.5% |
| 15 | -3.8% | -1.9% |

Part of the list above, as labelled records:
3) CC(C)(Oc1nn(CC2CCOCC2)c2ccccc12)C(=O)NCc1ccccc1
- SNCA expr inhib = -14.9%[87.6 µM]
- Luciferase inh = -2.4%[172 µM]
- 3T3 cytotox = ?
- HEK293 tox = ?
- SNCA viab count = -13.4%[87.6 µM]

4) Cc1nonc1CC(=O)N1CCCC(c2nnc(Cn3cccn3)n2C)C1 (stereo not given)
- SNCA expr inhib = 3.1%
- Luciferase inh = -9.0%
- 3T3 cytotox = -1.6%
- HEK293 tox = 0.6%
- SNCA viab count = -11.5%

5) CCc1nc2nccc(-c3ccco3)n2n1
- SNCA expr inhib = 5.4%
- Luciferase inh = 1.5%
- 3T3 cytotox = i
- HEK293 tox = 15.9%
- SNCA viab count = 5.6%

6) COCCn1c(C)cnc1CC1CCCN(S(=O)(=O)c2cccc(OC)c2)C1 (stereo not given)
- SNCA expr inhib = 8.8%
- Luciferase inh = /
- 3T3 cytotox = -29.4%
- HEK293 tox = ?
- SNCA viab count = 5.7%

Further results.
| item | Structure | SNCA expr inhib | Luciferase inh | 3T3 cytotox |
| --- | --- | --- | --- | --- |
| 16 | COc1cc(NC(=O)CCC2CCN(C(=O)c3ccccc3)CC2)cc(OC)c1 | 3.7% | -6.1% | -21.8% |
| 17 | CCCOc1ccc(CN2C[C@@H](CO)[C@H](C(=O)N(C)C)C2)cc1OC | 11.3% | 3.8% | -9.3% |
| 18 | COCC(=O)N1CC[C@]2(O)CCN(C(=O)c3ccn(C)c3C)C[C@@H]2C1 | 7.6% | -4.7% | -4.8% |
| 19 | CN1Cc2nc(-c3cccc(C(F)(F)F)c3)ccc2OCC1=O | 27.8%[87.6 µM] | ? | ? |
| 20 | COC(=O)c1cc2n(n1)CCCN(C(=O)COc1ccc(C)c(C)c1)C2 | 4.2% | -5.4% | 0.3% |
| 21 | CNC(=O)[C@@H]1CNC[C@H]1c1nc(C)no1 | 9.1% | 5.8% | 0.6% |
| 22 | CCC(CC)NC(=O)CCC1CCN(C(=O)c2ccccc2)CC1 | 80.4%[activator] | 25.1µM* | -7.1% |
| 23 | COCCN1C(=O)C(CC(=O)O)=C2CCCCC21 (stereo not given) | -16.3% | 3.2% | -9.8% |
| 24 | Cc1cc2c(cc1C1(c3ccc(C(=O)O)cn3)CC1)C(C)(C)CCC2(C)C | 8.8% | / | / |
| 25 | COCCN1CC(Cc2ccccc2C(=O)NC(C)C)CC1=O (stereo not given) | -14.6% | 2.8% | i |
| 26 | CCn1ncnc1C1CC(=O)Nc2cc(OC)c(NS(C)(=O)=O)cc21 (stereo not given) | 1.8% | -2.8% | -28.2% |
| 27 | Cc1ccc(C(=O)N2CC[C@@](C)(O)[C@@H](Cc3ccccc3)C2)cc1C | 3.4% | 0.0% | -33.6% |
| 28 | CC(=O)N1C[C@@H]2CCCN3CCC[C@@H]([C@H]23)[C@H]1CCCC(=O)N(C)C1CCN(C)CC1 | -19.5% | -0.3% | i |
| 29 | O=C(CCC1CCN(C(=O)c2ccccc2)CC1)Nc1ccc(F)cc1F | 1.4% | -0.8% | -17.6% |
| 30 | CSc1ccc(-c2nc(CN3CCOCC(CN(C)C)C3)c(C)o2)cc1 (stereo not given) | 12.5% | -5.5% | -21.8% |

| item | HEK293 tox | SNCA viab count |
| --- | --- | --- |
| 16 | ? | -6.4% |
| 17 | -12.1% | 0.0% |
| 18 | 0.7% | 3.5% |
| 19 | ? | -2.5%[87.6 µM] |
| 20 | -3.9% | -4.7% |
| 21 | ? | 2.2% |
| 22 | -8.0% | 5.4% |
| 23 | -7.7% | 11.0% |
| 24 | / | -7.6%&-0.7% |
| 25 | 1.6% | -0.8% |
| 26 | -7.1% | 5.4% |
| 27 | -28.7% | -12.8% |
| 28 | 0.8% | 11.7% |
| 29 | ? | 1.2% |
| 30 | ? | 4.4% |

Compound profiles, from the list above. Order of screens: SNCA expr inhib	Luciferase inh	3T3 cytotox	HEK293 tox	SNCA viab count
CC(=O)N1C[C@@H]2CCCN3CCC[C@@H]([C@H]23)[C@H]1CCCC(=O)N(C)C1CCN(C)CC1 across the screens: -19.5%	-0.3%	i	0.8%	11.7%
CCC(CC)NC(=O)CCC1CCN(C(=O)c2ccccc2)CC1 across the screens: 80.4%[activator]	25.1µM*	-7.1%	-8.0%	5.4%
CCn1ncnc1C1CC(=O)Nc2cc(OC)c(NS(C)(=O)=O)cc21 (stereo not given) across the screens: 1.8%	-2.8%	-28.2%	-7.1%	5.4%
